Assay outcomes: PubChem BioAssay, Johns Hopkins Ion Channel Center
KCNQ2 inh: KCNQ2 potassium channel inhibitors, primary screen, cell-based, CHO-K1, FluxOR thallium flux, B-score (AID 2156); Potassium voltage-gated channel subfamily KQT member 2 (Rattus norvegicus), O88943; 20 min; stronger effect = lower value; only compounds with negative scores are shown here; some inactives read as strong as hits; B-score at 10 µM; actives 1.1% (n = 310,000);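 active means fluorescence ratio B-score at most minus 3 library SDs, with starting brightness B-score within 2 library SDs, cut at about -5.5 in these data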
KCNQ2 inh baseline: second read-out of KCNQ2 inh, no call of its own (marks repeat the call); B-score; measured here: initial fluorescence intensity artifact check;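 brightness before thallium and not channel activity; 0 = typical well and far values either way flag optical interference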
Numbers without * were called inactive; i = inactive. An excerpt; rates above refer to the full screens.

(1) CCCCCCCCCCCCCCCC(O)C(N)CO (stereo not given)
(2) O=C(O)c1cc(=O)c2ccccc2o1
(3) CN[C@@H]1[C@H](O)[C@H](NC)[C@H]2O[C@@]3(O)C(=O)C[C@@H](C)O[C@H]3O[C@@H]2[C@H]1O
(4) CC(Cc1cccc(C(F)(F)F)c1)NCCOC(=O)c1ccccc1 (stereo not given)
(5) CN(C)CC/C=C1/c2ccccc2COc2ccc(CC(=O)O)cc21
(6) CCCOc1ccc2nc(NC(=O)OC)[nH]c2c1
(7) Cc1scc2c1N(C(=O)CN1CCN(C)CC1)c1ccccc1NC2=O
(8) N=c1nc(N2CCCCC2)cc(N)n1O
(9) O=C(NC1CCN(CCc2c[nH]c3ccccc23)CC1)c1ccccc1
(10) COc1cc(C2Oc3cc(C4Oc5cc(O)cc(O)c5C(=O)C4O)ccc3OC2CO)ccc1O (stereo not given)

entry no. | 1 | 2 | 3 | 4 | 5 | 6 | 7 | 8 | 9 | 10
KCNQ2 inh | -10* | i | i | i | i | i | i | i | i | i
KCNQ2 inh baseline | 3.2* | -0.17 | 1.7 | 0.01 | -0.21 | -0.07 | 1.5 | -0.5 | -0.35 | 0.3

Compounds above with a COOH group (2):
(2) O=C(O)c1cc(=O)c2ccccc2o1
(5) CN(C)CC/C=C1/c2ccccc2COc2ccc(CC(=O)O)cc21

entry no. | 2 | 5
KCNQ2 inh | i | i
KCNQ2 inh baseline | -0.17 | -0.21

Further records:
(11) CCC(C(=O)Nc1ccccc1N1CCCC1)c1ccccc1 (stereo not given)
(12) Cc1cc(=O)oc2cc(O)ccc12
(13) COC(=O)N/N=C/c1c[n+]([O-])c2ccccc2[n+]1[O-]
(14) CCCCOc1cc(C(=O)OCCN(CC)CC)ccc1N
(15) CC1(C)O[C@@H]2C[C@H]3[C@@H]4C[C@H](F)C5=CC(=O)C=C[C@]5(C)[C@@]4(F)[C@@H](O)C[C@]3(C)[C@]2(C(=O)CO)O1
(16) Cc1c(C)n(Cc2ccccc2)c2ccc(C(=O)OCCN(C)C)cc12
(17) CCCC(=O)O[C@]1(C(=O)COC(C)=O)CC[C@H]2[C@@H]3C[C@H](F)C4=CC(=O)C=C[C@]4(C)[C@@]3(F)[C@@H](O)C[C@@]21C

entry no. | 11 | 12 | 13 | 14 | 15 | 16 | 17
KCNQ2 inh | -7.2* | i | i | i | i | i | i
KCNQ2 inh baseline | 0.51* | 1.4 | 1.6 | 0.36 | 0.22 | -1.1 | 0.06

Three of the entries above in order of the KCNQ2 inh baseline value, highest first:
(13) COC(=O)N/N=C/c1c[n+]([O-])c2ccccc2[n+]1[O-]
(12) Cc1cc(=O)oc2cc(O)ccc12
(11) CCC(C(=O)Nc1ccccc1N1CCCC1)c1ccccc1 (stereo not given)

entry no. | 13 | 12 | 11
KCNQ2 inh | i | i | -7.2*
KCNQ2 inh baseline | 1.6 | 1.4 | 0.51*
